RGS16-Gao HTS: RGS16-Galphao interaction regulator (human); O15492+P09471; binding response (% of control), % at 10 µM; hit rate 0.38% among 220,000; AID 1441; bead-based flow cytometry RGS16-Galphao binding, fluorescence; actives lie on both sides;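 active = below 25% or above 175%, edge rows of some plates excepted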;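 note: Galphao activated by GDP with aluminum fluoride before binding; 100% = wells without compound and 0% = beads without RGS; some results beyond the cut were filed as inactive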
Target sequence (O15492 whole entry, looked up): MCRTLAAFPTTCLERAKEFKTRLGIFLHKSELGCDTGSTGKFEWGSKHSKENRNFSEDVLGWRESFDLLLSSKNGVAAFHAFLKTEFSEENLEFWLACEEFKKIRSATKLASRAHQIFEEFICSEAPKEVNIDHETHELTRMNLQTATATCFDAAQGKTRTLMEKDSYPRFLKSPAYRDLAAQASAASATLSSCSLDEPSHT
Target sequence (P09471 whole entry, looked up): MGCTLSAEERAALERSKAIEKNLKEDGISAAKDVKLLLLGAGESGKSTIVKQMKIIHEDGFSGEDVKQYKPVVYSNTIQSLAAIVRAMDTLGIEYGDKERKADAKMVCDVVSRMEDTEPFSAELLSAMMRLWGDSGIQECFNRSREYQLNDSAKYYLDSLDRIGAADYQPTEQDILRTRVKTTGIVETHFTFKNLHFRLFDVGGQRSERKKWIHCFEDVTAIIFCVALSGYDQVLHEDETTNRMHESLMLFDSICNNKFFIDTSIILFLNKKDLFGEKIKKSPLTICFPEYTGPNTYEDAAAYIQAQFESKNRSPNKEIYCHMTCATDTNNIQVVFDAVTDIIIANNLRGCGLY
Insulin prom inh: TRM-6 insulin promoter activity inhibition | TRM-6 cells (human fetal islet line), insulin promoter-eGFP reporter, imaging; reporter expression induced with tamoxifen | inhibition, % at 2 µM | hit rate 0.9% among 130,000 | AID 1273;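 active = inhibition above the mean plus 3 SD, with well images judged a real hit on visual review, cut at about 60% in these data, passing the limit was not always enough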
PKD1 inh: blocks activity of human protein kinase D1; hit rate 0.056% among 200,000; inhibition, %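 (about 10 µM by stock and volumes)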; AID 797; Q15139; PKD1 kinase fluorescence polarization assay;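 active = inhibition of 50% or more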;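 note: controls were vehicle for no effect and a reference inhibitor for full effect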
HSV replic up: HSV replication enhancement; maximum fold increase; HSV replication augmentation in cells, fold increase; hit rate 0.005% among 220,000;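 active = peak rise of 1.5-fold or more in the series; tested in PC3 cells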;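 note: first round at 10 µM; read as green reporter fluorescence; hits show the peak of a series up to 25 µM; 1 = signal of infected wells without compound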
GALR2 agonist: agonists of human galanin receptor 2 (GALR2); AID 803; activation, %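 (tested at 5 µM)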; hit rate 0.48% among 140,000; GALR2-expressing cells, agonist activation read-out;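 active = above mean plus 3 SD of all compounds, about 5% in these data, not always enough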;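 note: 0% = vehicle buffer wells and 100% = reference agonist at full effect; tested in CHO reporter cells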
Target sequence (O43603 whole entry, looked up): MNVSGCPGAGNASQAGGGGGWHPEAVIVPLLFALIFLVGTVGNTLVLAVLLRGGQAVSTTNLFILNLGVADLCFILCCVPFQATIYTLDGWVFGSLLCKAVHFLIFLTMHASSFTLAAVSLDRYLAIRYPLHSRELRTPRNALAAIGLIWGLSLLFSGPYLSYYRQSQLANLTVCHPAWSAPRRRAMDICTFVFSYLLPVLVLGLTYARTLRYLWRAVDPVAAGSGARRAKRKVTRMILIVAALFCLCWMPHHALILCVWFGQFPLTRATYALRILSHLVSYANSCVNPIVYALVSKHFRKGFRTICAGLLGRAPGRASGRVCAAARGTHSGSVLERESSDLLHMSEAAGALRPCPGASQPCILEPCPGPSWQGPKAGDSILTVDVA
Insulin prom inh cell count: second read-out of Insulin prom inh, no call of its own (marks repeat the call); normalized cell count, %; measured here: cell count, toxicity; reference of the scale not given here;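 cells exposed to compound for 48 h; stained nuclei by imaging scaled within each plate; lower means fewer cells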
HSV replic up primary fold: second read-out of HSV replic up, no call of its own (marks repeat the call); fold increase; compound at 10 µM; measured here: primary screen fold increase 10 uM; tested in PC3 cells;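 GFP signal in the first replicate; 1 = infected wells without compound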
* = called active by the depositor; i = inactive; . = no result given. This is a random part of the collection; overall some 1.3% were active at least once.

item	smiles	RGS16-Gao HTS	Insulin prom inh	Insulin prom inh cell count	PKD1 inh
1	Cc1ccc(-n2c(Cc3cccn3C)nnc2SCC(=O)Nc2ccc3c(c2)OCO3)cc1	96	.	.	0
2	Cc1cc(C)c(C#N)c(SCc2ccccc2F)n1	101	-22	102	1
3	CN1CCN(S(=O)(=O)c2ccc(NC(=O)c3cccs3)cc2)CC1	100	-3	94	-3
4	COC(=O)c1ccc(NC(=O)CSc2nnc(-c3ccncc3)n2C)cc1	112	-223	117	-6
5	COc1ccc(NC(=O)CN(Cc2ccccc2)Cc2ccccc2)cc1S(N)(=O)=O	105	-3	82	-3
6	Cc1cc(C)c(S(=O)(=O)N2CCCCC2C(=O)O)c(C)c1 (centres undefined)	105	.	.	0
7	Cc1ccc(C)n1-c1ccc(N2CCOCC2)c(Br)c1	92	-28	117	0
8	O=c1c2cc(N3CCOCC3)ccc2[nH]c(=S)n1Cc1cccc(Cl)c1	100	0	60	-5
9	CCOC(=O)C1=C(c2ccccc2)NC(=O)N(C(C)=O)C1c1cccc([N+](=O)[O-])c1 (centres undefined)	31	.	.	2
10	COCCn1c(SCc2c(F)cccc2Cl)nc2c1c(=O)[nH]c(=O)n2C	99	-142	128	-3
11	COc1ccc(-c2cc(C(=O)OCC(=O)NC(C)C)c3ccccc3n2)cc1	101	.	.	-9
12	CCOC(=O)/C(C#N)=C/NC(=O)NC(C)(C)C	69	42	94	-1

item	HSV replic up	HSV replic up primary fold	GALR2 agonist
1	i	0.88	-0.3
2	i	1	.
3	i	0.95	-0.1
4	i	0.9	-3.6
5	i	0.96	0.1
6	i	0.97	.
7	i	0.93	-2.3
8	i	0.8	-1.2
9	i	1.1	.
10	i	0.79	-3.4
11	i	1	.
12	i	0.9	-3.0

(next part)
item	smiles	RGS16-Gao HTS	Insulin prom inh	Insulin prom inh cell count	PKD1 inh
13	CCNS(=O)(=O)c1ccc(NC(=O)Cn2nc(C(F)(F)F)cc2C)cc1	97	.	.	-12
14	CC1CCCCN1CC(=O)c1c(N)n(Cc2ccccc2)c(=O)n(C)c1=O (centres undefined)	102	-92	70	8
15	O=C(Cn1nnc2c(cnn2-c2ccccc2)c1=O)N1CCN(c2ccccc2F)CC1	107	-26	127	7
16	COc1ccc(/C=N/Nc2snc(SC)c2C#N)cc1OC	105	-8	157	-10
17	COc1ccc(N2C(=O)CSC23C(=O)Nc2ccccc23)cc1 (centres undefined)	102	15	85	-7
18	Cc1ccccc1CSc1n[nH]c(NS(=O)(=O)c2ccccc2)n1	101	-83	62	1
19	CCCCNC(=O)CC1N=C2c3ccccc3N=C(SCC(=O)Nc3ccc(OC)cc3)N2C1=O (centres undefined)	102	-39	112	-1
20	O=C(NCc1ccccc1)c1ccc2c(=O)[nH]c3c(C(=O)NCC4CCCO4)sc(=S)n3c2c1 (centres undefined)	108	.	.	-10
21	O=C(NC(=S)Nc1ccccc1[N+](=O)[O-])c1ccccc1	101	.	.	.
22	CC(C)CC1NC2(C(=O)N(C)c3ccccc32)C2C(=O)N(C(C)C)C(=O)C12 (centres undefined)	106	-29	109	1
23	CC(=O)NCCOc1nc(N(C)C)nc(N2CCOCC2)n1	93	-48	83	-4
24	Cc1cc(=O)[nH]c(-c2ccccc2)n1	108	21	120	7

item	HSV replic up	HSV replic up primary fold	GALR2 agonist
13	i	0.95	-0.9
14	i	1.1	.
15	i	1	-1.9
16	i	0.81	5.1*
17	i	0.83	-2.0
18	i	0.86	0.0
19	i	0.89	-1.4
20	i	0.96	.
21	i	0.82	.
22	i	0.9	-1.5
23	i	0.77	-1.0
24	i	1.1	-2.5

Record cards (already shown):
Listed for O=C(NCc1ccccc1)c1ccc2c(=O)[nH]c3c(C(=O)NCC4CCCO4)sc(=S)n3c2c1 (centres undefined) = RGS16-Gao HTS = 108; Insulin prom inh = .; Insulin prom inh cell count = .; PKD1 inh = -10; HSV replic up = i; HSV replic up primary fold = 0.96; GALR2 agonist = .
Listed for O=C(NC(=S)Nc1ccccc1[N+](=O)[O-])c1ccccc1 = RGS16-Gao HTS = 101; Insulin prom inh = .; Insulin prom inh cell count = .; PKD1 inh = .; HSV replic up = i; HSV replic up primary fold = 0.82; GALR2 agonist = .

Next entries follow:
item	smiles	RGS16-Gao HTS	Insulin prom inh	Insulin prom inh cell count	PKD1 inh
25	CS(=O)(=O)Cc1cc(N2CCCC2)nc(-c2ccccc2)n1	100	.	.	5
26	C/C(=N\NC(=O)CC(C)C)c1ccc(Cl)c(Cl)c1	96	.	.	-2
27	CSc1sc(C(=O)NNC(=O)c2ccc(Cl)cc2)c2c1C=CCC2	92	.	.	.
28	COc1ccc(C(=O)/C=C/Nc2cc(C)on2)c(OC)c1	96	-43	115	15
29	CCCSCCCNC(=O)CC1Oc2ccccc2NC1=O (centres undefined)	101	.	.	-8
30	COc1ccccc1/C=N\N=C(\N)c1ccccn1	106	-62	75	1
31	CCCCCCn1c(-c2cccs2)n[nH]c1=S	91	.	.	-1
32	CCCCN1CN(Cc2ccccc2)CNC1=S	99	14	92	-7
33	O=C(N/N=C1/SCC(=O)N1Cc1ccco1)c1ccccc1F	103	.	.	7
34	Cc1ccc(-n2ncc3c(N4CCCC(C)C4)ncnc32)c(C)c1 (centres undefined)	93	.	.	.
35	Cc1ccc(NC(=S)Nc2ccc(C(C)C)cc2)cc1S(=O)(=O)N1CCCCCC1	102	7	126	-12
36	O=C(O)C1CCN(S(=O)(=O)c2ccc3c(c2)OCCCO3)CC1	97	.	.	-8

item	HSV replic up	HSV replic up primary fold	GALR2 agonist
25	i	0.96	.
26	i	0.95	-1.2
27	i	1.1	.
28	i	0.77	-1.3
29	i	1.1	-1.8
30	i	1	-1.8
31	i	0.95	.
32	i	1	-1.2
33	i	0.97	.
34	i	0.62	.
35	i	0.81	-1.8
36	i	1	.

New compounds follow
item	smiles	RGS16-Gao HTS	Insulin prom inh	Insulin prom inh cell count	PKD1 inh
37	COc1ccc(-c2cc(C(F)(F)F)c(C#N)c(SCC(=O)Nc3nc(C)co3)n2)cc1	111	-160	152	-6
38	CN(C)C(=S)NC(=O)C12CC3CC(C)(CC(C)(C3)C1)C2	93	.	.	.
39	Nc1c(C(=O)C2CC2)sc2nc3c(cc12)CCC3	117	.	.	-7
40	O=C(CCS(=O)(=O)c1ccc(Cl)cc1)Oc1ccc2c(c1)OCO2	98	12	110	2
41	CC(c1ccccc1F)n1cc(C(=O)NCCCc2nc3ccccc3[nH]2)nn1 (centres undefined)	116	.	.	3
42	C[C@@H]1OC(Nc2ccc(N=Nc3ccccc3)cc2)[C@H](O)[C@H](O)[C@H]1O (some centres undefined)	95	.	.	.
43	O=C1/C(=C/c2cccnc2)SC(=NCc2ccccc2)N1Cc1ccccc1	95	0	78	4
44	COn1c2c(c3c4no[n+]([O-])c4ccc31)CCCC2	103	-29	135	4
45	COc1ccc(C(=O)O/N=C/c2c(C(F)(F)F)nn(C)c2SCc2ccccc2Cl)cc1	98	-12	127	-9
46	CCCCC1(C)OC(=O)C(=Cc2ccc(SC)cc2)C(=O)O1 (centres undefined)	90	.	.	-2
47	CCOC(=O)c1cnn(CCOC(=O)Cc2cccs2)c1NC(=O)Cc1cccs1	91	.	.	0
48	Cc1ccc(NC(=O)COC(=O)C2(c3ccc(Cl)cc3)CCCC2)cc1	89	-10	77	-2

item	HSV replic up	HSV replic up primary fold	GALR2 agonist
37	i	1.1	-2.9
38	i	1.1	.
39	i	1	.
40	i	0.95	-0.6
41	i	0.88	.
42	i	1.1	.
43	i	1	.
44	i	0.96	-2.3
45	i	0.81	-1.4
46	i	1	.
47	i	0.93	-2.0
48	i	1	0.9

Other entries follow.
item	smiles	RGS16-Gao HTS	Insulin prom inh	Insulin prom inh cell count	PKD1 inh
49	Cc1cc(C(C)(C)C)ccc1NC(=O)CC(C)(C)CC(=O)O	97	.	.	.
50	CSCCC(NC(=O)c1cccc(C)c1)C(=O)O (centres undefined)	97	.	.	-9
51	Oc1ccc(Nc2nc(N3CCCC3)c3ccccc3n2)cc1	86	.	.	5
52	COc1ccc(-c2noc(CN(C)C3CCOCC3)n2)cc1	103	.	.	-3
53	CC(C)OCC(O)CN (centres undefined)	96	-36	42	-12
54	O=C(O)C1(P(=O)(c2ccccc2)c2ccccc2)CCCC1	102	.	.	.
55	Cc1nc2c3cc(F)ccc3n(CCN3CCCCC3)c2s1	99	.	.	-1
56	CCCOC(=O)c1c(NC(=O)CCCn2nc([N+](=O)[O-])cc2C)sc(C(=O)OC)c1C	100	-21	60	2
57	COc1ccccc1N1CCN(C(=O)CN(CCc2ccccc2)S(C)(=O)=O)CC1	104	29	201	0
58	Cc1nnc2ccc(-c3ccc(NC(=O)c4ccc(Cl)nc4)cc3)nn12	109	.	.	-10
59	CCn1cc(CN2CCc3c([nH]c4ccccc34)C2c2cccc(O)c2)c(C)n1 (centres undefined)	100	.	.	-1
60	CCN(CC)CC#CCC(O)(c1ccccc1)C1CCCC1 (centres undefined)	104	0	82	2

item	HSV replic up	HSV replic up primary fold	GALR2 agonist
49	i	0.56	.
50	i	1	.
51	i	0.55	-2.1
52	i	0.94	.
53	i	0.9	-1.6
54	i	1	.
55	i	0.7	.
56	i	0.96	1.5
57	i	0.85	-1.4
58	i	0.95	.
59	i	0.78	.
60	i	1.1	-0.8

The closing 2 records of the part before are carried over, then new ones follow:
item	smiles	RGS16-Gao HTS	Insulin prom inh	Insulin prom inh cell count	PKD1 inh
59	CCn1cc(CN2CCc3c([nH]c4ccccc34)C2c2cccc(O)c2)c(C)n1 (centres undefined)	100	.	.	-1
60	CCN(CC)CC#CCC(O)(c1ccccc1)C1CCCC1 (centres undefined)	104	0	82	2
61	Cc1cc(C)cc(NC(=O)c2ccc3nc[nH]c3c2)c1	106	25	71	-8
62	O=C(CSc1nnnn1-c1ccc2c(c1)OCO2)NCc1cccs1	102	-186	40	-7
63	CC1=NNC(=O)/C1=C\c1cn(-c2ccccc2)nc1-c1ccc(F)cc1	105	.	.	9
64	CC(C)(C)NC(=O)C1CCC(CNc2c(N3CCCCC3)c(=O)c2=O)CC1 (centres undefined)	91	.	.	.
65	O=C(NCCc1ccccc1)C1CCN(S(=O)(=O)c2ccc(Br)s2)CC1	195	-33	78	-1
66	c1ccc(-c2csc3ncnc(NCC4COc5ccccc5O4)c23)cc1 (centres undefined)	74	.	.	2
67	CCOC(=O)N1CCC(n2c(SCC(=O)NCCc3ccc(S(N)(=O)=O)cc3)nc3ccccc3c2=O)CC1	100	-43	63	3
68	COc1ccc(NC(=O)COC(=O)c2cnccn2)cc1Cl	102	8	108	2
69	COc1ccc(-c2c(C)n([O-])c(C)c(C)[n+]2=O)cc1	96	17	77	-1
70	COc1ccc(Oc2cnn(-c3ccccc3)c(=O)c2Br)cc1	98	.	.	-5
71	COCCNC(=O)C(=O)NCCN1CCNCC1	129	.	.	-3
72	O=C(Nc1ccc(F)cc1F)c1csc(-c2ccncc2)n1	98	.	.	-2
73	CCOC(=O)C1=C(N)N(c2ccccc2Oc2ccccc2)C(=O)C1	116	55	95	3
74	CCOC(=O)c1c(-c2ccc(C)o2)csc1NC(=S)NC(=O)c1ccccc1Br	103	.	.	4

item	HSV replic up	HSV replic up primary fold	GALR2 agonist
59	i	0.78	.
60	i	1.1	-0.8
61	i	1	-0.7
62	i	0.99	-1.7
63	i	0.52	.
64	i	0.94	.
65	i	1	-1.6
66	i	0.79	1.2
67	i	1	.
68	i	0.96	-1.7
69	i	0.94	-1.6
70	i	0.84	.
71	i	1	.
72	i	1	.
73	i	0.87	-4.6
74	i	0.96	-1.7
